Mtb H37Rv – Mycobacterium tuberculosis H37Rv growth inhibition, cell based, confirmatory dose response (AID 1949); most inactive calls were filed without a number and no value below 0 was filed; one-dose inhibition, % at 10 µg/mL; IC50 in µg/mL for titrated hits; 100,000 tested, 1.6% active;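 active means confirmed in a dose series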;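 further: bacteria grown 7 days with compound before Alamar blue readout; 0% = untreated bacteria and 100% = reference antibiotic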
Numbers without * were called inactive; i = inactive.

SMILES	Mtb H37Rv
C=CCn1c(SCC(=O)Nc2cccc(C(C)=O)c2)nc2scc(-c3ccc(C)o3)c2c1=O	i
COC(=O)Cc1ccc(NC(=S)NCc2cccnc2)cc1	i
CC(=O)Nc1ccc(NC(=O)c2ccc(-c3ccc([N+](=O)[O-])cc3)o2)cc1	i
c1csc(-c2ncc3ccccn23)c1	5.6%
Nc1c(C(=O)Nc2ccc3ccccc3c2)sc2nc3c(cc12)CCCC3	1.8%
COc1ccc(CNC(=O)CSc2nc3cc(C(F)(F)F)ccc3s2)cc1	i
O=C(O)CNC(=O)c1ccc(S(=O)(=O)N2CCCC2)cc1	i
CCOC(=O)C1C(=O)N(C(=O)c2ccc(OC)cc2)CC1c1ccccc1 (centres undefined)	i
Cn1c(SCC(=O)c2ccc(Cl)cc2Cl)nnc1-c1sc2ccccc2c1Cl	i
COCCn1c(=N)c(S(=O)(=O)c2ccc(Cl)cc2)cc2c(=O)n3ccccc3nc21	3.7%
COc1ccc(C(=O)Nc2cc(-c3nc4cc(C)ccc4o3)ccc2C)cc1	i
COC(=O)c1ccccc1NC(=O)CSc1nc2ccc(N3C(=O)c4ccccc4C3=O)cc2s1	0.5%
COC(=O)c1cc(CN2CCN(c3ccccc3)CC2)ccc1O	i
CC(NC(=O)c1cccs1)C(=O)NC1=NCCS1 (centres undefined)	0.3%
CC1(C)CC(=O)c2cnc(NCc3ccc(F)cc3)nc2C1	i
COc1ccc(C(=O)Nc2ccc(C(=O)NCC3COc4ccccc4O3)cc2)cc1OC (centres undefined)	i
COc1ccc(NC(=O)C2CC(=O)OC23CCCCC3)c(OC)c1 (centres undefined)	i
CCN(CC)/C(=N\S(=O)(=O)c1ccccc1)c1ccc(F)cc1	i
CCC(=O)N(CCC(c1ccccc1)c1ccco1)Cc1ccccc1 (centres undefined)	8.7%
O=C(NCCCn1ccnc1)c1cc2c(s1)CCCC2	i
O=C(CSc1nc2ccc(NC(=O)c3ccccc3Br)cc2s1)Nc1ccccc1	i
CCN(CC)S(=O)(=O)c1ccc(NC(=O)COc2ccc(Cl)cc2Br)cc1	i
COCc1cc(=O)[nH]c(Nc2nc3ccccc3s2)n1	i
COC(=O)CNS(=O)(=O)c1ccc(Br)cc1	i
CCCCOc1ccccc1NC(=O)Nc1ccc(Cl)cc1	2.8%

Part of the list above in order of molar mass, falling.
SMILES	Mtb H37Rv
COC(=O)c1ccccc1NC(=O)CSc1nc2ccc(N3C(=O)c4ccccc4C3=O)cc2s1	0.5%
COc1ccc(C(=O)Nc2ccc(C(=O)NCC3COc4ccccc4O3)cc2)cc1OC (centres undefined)	i
COc1ccc(CNC(=O)CSc2nc3cc(C(F)(F)F)ccc3s2)cc1	i
COC(=O)CNS(=O)(=O)c1ccc(Br)cc1	i

The listing picks up, starting 2 compounds before the break.
SMILES	Mtb H37Rv
COC(=O)CNS(=O)(=O)c1ccc(Br)cc1	i
CCCCOc1ccccc1NC(=O)Nc1ccc(Cl)cc1	2.8%
CCOC(=O)CC(CN)c1ccccc1 (centres undefined)	i
CCOC(=O)CNC(=S)Nc1ccc(Br)cc1Cl	i
COc1cc(NC(=S)Nc2ccc(OC)cc2OC)cc(OC)c1	i
COc1ccc(N(C)C(=S)Nc2ccc3nc(-c4ccco4)c(-c4ccco4)nc3c2)cc1	i
O=C(O)c1cc(-c2ccc(O)cc2)nc2ccccc12	i
N#C/C(=C\c1ccc(-c2ccc(Cl)cc2)o1)S(=O)(=O)c1ccccc1	i
CCOc1cc(C(=O)Nc2cccc(-c3nc4ncccc4o3)c2C)cc(OCC)c1OCC	i
Cc1c(Cl)ccc(S(=O)(=O)NCc2cccnc2)c1Cl	i
CC1(C)CC(=O)c2cc(C(=O)NCc3ccco3)c(=O)n(-c3ccc(Cl)cc3)c2C1	i
O=S(=O)(c1ccc(-c2ccccc2)cc1)N1CCCCC1	i
O=C(Oc1cccc(NC(=O)c2cccs2)c1)c1ccc(-c2ccccc2)cc1	i
Cc1nc2ccccc2c(=O)n1CCCn1ccnc1	i
CC(=O)Nc1ccc(NC(=O)CSCc2ccccc2C)cc1	i
COc1cccc(C(=O)Nc2nc3ccc(Br)cc3s2)c1	5.1%
Clc1ccc(COn2nnc3ccccc32)c(Cl)c1	3.7%
COc1ccc(C(=O)CN2CCN(C(=O)c3ccccc3F)CC2)cc1	i
CN1CCN(C(=O)CN(c2cccc3ccccc23)S(C)(=O)=O)CC1	i
O=C(Nc1cccc(O)c1)c1cnn2cccnc12	i
O=C1CCCC2=C1C(c1c(Cl)cccc1Cl)Nc1ccccc1N2 (centres undefined)	i
CC(C)(C)c1ccc(OC(=O)CN2C(=O)c3ccccc3C2=O)cc1	i
CCN1C(=O)CC(NCCc2ccc(S(N)(=O)=O)cc2)C1=O (centres undefined)	i
S=C(c1ccc(OCc2ccc(Cl)cc2)cc1)N1CCCC1	i
N#Cc1ccc(CSc2nnc(-c3ccccn3)n2-c2ccccc2)cc1	i
N#Cc1c(C(F)(F)F)cc(-c2ccc(Br)cc2)nc1SC(C(=O)O)c1ccccc1 (centres undefined)	i
COC(=O)Cc1c(C)c2ccc(OCC(=O)N3CCc4ccccc4C3)c(C)c2oc1=O	4.3%

Entries from the list above containing two or more sulfur atoms (6):
SMILES	Mtb H37Rv
C=CCn1c(SCC(=O)Nc2cccc(C(C)=O)c2)nc2scc(-c3ccc(C)o3)c2c1=O	i
COc1ccc(CNC(=O)CSc2nc3cc(C(F)(F)F)ccc3s2)cc1	i
Cn1c(SCC(=O)c2ccc(Cl)cc2Cl)nnc1-c1sc2ccccc2c1Cl	i
COC(=O)c1ccccc1NC(=O)CSc1nc2ccc(N3C(=O)c4ccccc4C3=O)cc2s1	0.5%
CC(NC(=O)c1cccs1)C(=O)NC1=NCCS1 (centres undefined)	0.3%
O=C(CSc1nc2ccc(NC(=O)c3ccccc3Br)cc2s1)Nc1ccccc1	i

Next section
SMILES	Mtb H37Rv
c1nc(N2CCOCC2)c2c3c(sc2n1)CCCC3	i
COc1ccc(S(=O)(=O)N2CCC(C(=O)N3CCOCC3)CC2)cc1C	i
CN(C)CC#CC(O)C1CC=CCC1 (centres undefined)	4.8%
O=C(CSc1ccccc1)Nc1cccc(-c2nnc(-c3ccccc3)o2)c1	i
COc1ccc(-n2nnnc2SCCSc2nnnn2-c2ccc(OC)cc2)cc1	i
COc1cc(NS(=O)(=O)c2ccc(NC(=O)CSc3nc4sc(C(=O)O)c(C)c4c(=O)[nH]3)cc2)nc(OC)n1	i
CCOC(=O)C1Cc2ccccc2C(=O)O1 (centres undefined)	i
CSc1ccccc1NC(=O)Nc1ccc(F)cc1F	2.3%
O=C(Nc1ccc(F)c(F)c1F)C(F)(F)F	i
O=[N+]([O-])c1ccc2c(c1)C1c3ccccc3CC1C(c1ccccc1F)N2 (centres undefined)	i
CC(C)C(NS(=O)(=O)c1ccc(Cl)cc1)C(C)C	2.7%
CCCCOc1cccc(C(=O)NC(=S)Nc2cc(OC)c(Cl)cc2OC)c1	i
CS(=O)(=O)N1CCN(C(=O)c2cccc(F)c2)CC1	i
Cc1cc(N2C(=O)C(O)=C(C(=O)c3cccs3)C2c2ccc(Cl)cc2)no1 (centres undefined)	0.8%
Cc1ccc(OCCCN(C)Cc2ccccc2)cc1C	i
CN(C)CCN(C)Cc1ccc(Br)s1	3.5%
CCOC(=O)c1c(NC(=O)CSc2nnc3ccccn23)sc2c1CCCCC2	i
CCn1c(SCC(=O)c2ccc(Br)cc2)nnc1C(C)NC(=O)c1ccc(Cl)cc1 (centres undefined)	i
Cc1ccc(OCC(=O)Nc2cccc(NC(=O)C(C)C)c2)cc1	i
COC(=O)C1=C(C)N(c2ccc(F)c(Cl)c2)C(=O)C1	13.5µg/mL*
O=C(COc1ccc(Cl)cc1Br)NCCO	i
Cc1oncc1C(=S)Nc1ccccc1	2.0%
COc1ccc(-c2cc(C(=O)Nc3cccnc3)c3ccccc3n2)cc1OC	i
Cc1ccc(C)c(C(=O)NCc2ccncc2)c1	i
CC(=O)c1sc2nc(SCC(=O)NCCc3ccccc3)[nH]c(=O)c2c1C	i
(further entries)
SMILES	Mtb H37Rv
COc1ccc(S(=O)(=O)n2nc(C)cc2C)cc1N(C)S(=O)(=O)c1ccccc1	0.0%
CC(Nc1nc(N2CCNCC2)nc2ccccc12)c1ccccc1 (centres undefined)	0.9%
Cc1c(NC(=O)Cc2ccc(Cl)cc2)cccc1[N+](=O)[O-]	i
CCOc1ccc(NC(=S)Nc2ccc3nsnc3c2)cc1	0.52µg/mL*
O=C(Cc1c(F)cccc1Cl)NCc1ccncc1	i
COc1cc(NC(=O)c2cc3nc(-c4ccccc4)cc(C(F)(F)F)n3n2)cc(OC)c1OC	0.9%
COc1ccc2nc(NC(=O)Cc3ccc(C)cc3)sc2c1	40.9%
COc1ccc(C(=O)n2ccc(C)n2)cc1Br	4.1%
COC(=O)c1cnn2c(C(F)(F)F)cc(-c3ccccc3)nc12	i
O=C(Nc1ccc(Cl)cn1)c1sc2cc(Cl)ccc2c1Cl	i
OCCNCCCCOc1ccc(I)cc1	1.2%
CCc1ccccc1NC(=O)CN(c1ccc(C)c(C)c1)S(C)(=O)=O	i
CCOc1ccccc1C(=O)NN1C(=O)c2ccccc2C1=O	6.7%
O=C(Nc1cccc(Br)c1)c1ccc2snnc2c1	i
O=C(CSc1nc2sc3c(c2c(=O)[nH]1)CCCC3)NCc1ccccc1	i
Cc1cc(C)nc(NS(=O)(=O)c2ccc(NC(=O)COc3ccc(Cl)cc3Br)cc2)n1	i
N/C(=N\OC(=O)CCC1CCCCC1)c1ccc(Br)cc1	i
O=C(NC(=S)Nc1ccccc1N1CCCCC1)c1cccs1	12.4%
Cc1c(NC(=S)NC(=O)CC23CC4CC(CC(C4)C2)C3)c(=O)n(-c2ccccc2)n1C	i
Cc1cc(C)cc(C(=O)NC(=S)Nc2cccc(NC(=O)c3cccc(Cl)c3)c2)c1	i
O=C(O)c1cc(NC(=S)NC(=O)c2ccccc2I)ccc1Cl	i
O=S(=O)(Nc1ccc(Cl)cc1C(F)(F)F)c1ccccc1	i
CSc1nnc2c(n1)OC(c1ccc3c(c1)OCO3)N(C(C)=O)c1ccc(Cl)cc1-2 (centres undefined)	i
CCCCNC(=O)c1cc(-c2cccs2)nc2ccccc12	i
CCOC(=O)c1ccc(NC(=O)COc2ccc3c(-c4ccccc4)cc(=O)oc3c2C)cc1	0.5%

In the list so far, 6 have a CF3 group.
SMILES	Mtb H37Rv
COc1ccc(CNC(=O)CSc2nc3cc(C(F)(F)F)ccc3s2)cc1	i
N#Cc1c(C(F)(F)F)cc(-c2ccc(Br)cc2)nc1SC(C(=O)O)c1ccccc1 (centres undefined)	i
O=C(Nc1ccc(F)c(F)c1F)C(F)(F)F	i
COc1cc(NC(=O)c2cc3nc(-c4ccccc4)cc(C(F)(F)F)n3n2)cc(OC)c1OC	0.9%
COC(=O)c1cnn2c(C(F)(F)F)cc(-c3ccccc3)nc12	i
O=S(=O)(Nc1ccc(Cl)cc1C(F)(F)F)c1ccccc1	i

Next structures.
SMILES	Mtb H37Rv
CCN(CC)C(=O)c1ccc(C(O)C(Cl)(Cl)Cl)o1 (centres undefined)	i
CCn1c(CN2CCCCC2C)nc2c1c(=O)n(C)c(=O)n2C (centres undefined)	2.0%
Cc1ccc(C(=O)N(C)c2ccccc2C(=O)NCc2ccccc2)cc1	i
CCc1c(C)sc(NC(=O)CCc2ccc(OC)cc2)c1C#N	i
COc1ccc(S(=O)(=O)NCC(=O)Nc2cccc(Br)c2)cc1OC	i
C=CCc1ccccc1OCCOCCN1CCN(C)CC1	i
CCC(C)S(=O)(=O)c1oc(-c2ccc(C)cc2)nc1S(=O)(=O)c1ccccc1 (centres undefined)	44.7%
CC12CCC(C(=O)NC(c3ccccc3)c3ccccc3)(OC1=O)C2(C)C (centres undefined)	i
NC(=O)CN(CC(N)=O)S(=O)(=O)c1ccccc1	i
CCOc1ccccc1CNc1nc2nc3c(c(=O)n2[nH]1)CCC3	i
CCc1cc(Br)ccc1NC(=O)C1C2C=CC(C3CC23)C1C(=O)O (centres undefined)	i
O=C(c1ccc(C(=O)N2CCOCC2)s1)N1CCOCC1	i
O=C(c1ccc(COCC(F)(F)F)cc1)N1CCN(c2ccccn2)CC1	i
CCc1cc(C(=O)OC)c(NC(=S)Nc2ccccc2Sc2ccccc2)s1	3.4%
CC1=C(C)CC(C(=O)NC(C)CCc2ccccc2)C(C(=O)O)C1 (centres undefined)	i
O=Cc1cn(CCC(=O)O)nc1-c1cc2ccccc2o1	i
COc1cc(CNCCO)cc(Cl)c1OCc1ccc(F)cc1	i
CC1CCCCN1C(=O)C1CCN(S(=O)(=O)c2ccccc2)CC1 (centres undefined)	i
N#CC(C#N)=C1C(=O)N(Cc2ccc3c(c2)OCO3)c2ccccc21	i
CC(C)(C)c1nnc(NC(=O)c2cccc3ccccc23)s1	27.9%
CC(C(=O)Nc1ccccc1C(=O)N1CCOCC1)N(c1ccc(Oc2ccccc2)cc1)S(C)(=O)=O (centres undefined)	i
COc1ccccc1NC(=O)C12CC3CC(C1)CC(c1ccc(C)cc1)(C3)C2	2.1%
CCOC(=O)C(Sc1nc(N(C)C)nc(N(C)C)n1)C(C)=O (centres undefined)	i
CCCOC(=O)c1ccc(NC(=O)c2c(C)cc(C)cc2C)cc1	i
O=C(CNC(=O)C1CCCCC1)Nc1ccccc1	i
(cont.)
SMILES	Mtb H37Rv
C=C(C)c1cccc(C(C)(C)NC(=O)N2CCN(c3cccc(C(F)(F)F)c3)CC2)c1	i
Cc1ccc(S(=O)(=O)N(CC(N)=O)c2cccc(C)c2C)cc1	0.4%
O=C1CC(c2ccc(S(=O)(=O)NCCOc3ccccc3)cc2)CN1 (centres undefined)	9.1%
O=C(Nc1cccc(Cl)c1Cl)c1sc2ccccc2c1Cl	i
COc1ccc(NC(=O)c2cn(-c3ccccc3)nc2-c2cccs2)cc1	i
CCOc1cccc(OCCOCCNCCN)c1	0.5%
Clc1ccccc1-c1nnc2sc(-c3cccs3)nn12	i
CCCC(=O)Nc1ccc2[nH]c(=O)[nH]c2c1	i
Cc1ccc(NC(=S)NC(=O)c2ccco2)nc1	1.1%
CC1=C(C(=O)Nc2ccccc2C)C(c2cccs2)C(C#N)=C(SCC(=O)Nc2ccc([N+](=O)[O-])cc2)N1 (centres undefined)	2.1%
COc1ccc(OC)c(C(O)c2coc3ccc(O)c(CN(C)C)c23)c1 (centres undefined)	i

High-throughput results from PubChem BioAssay.

Not all compounds are listed; the hit share may differ from the screen's.
